gsp agonist: qHTS for Agonist of gsp, the Etiologic Mutation Responsible for Fibrous Dysplasia/McCune-Albright Syndrome: qHTS; gsp mutant cells, cAMP HTRF, 30 min; control for the full effect not named in the record; Potency, µM (series often up to 76.9 µM), for the others: top-dose activation (cAMP increase), most hits filed as activators; 340,000 compounds, 0.13% hits; active = well fitted activation curve with a large enough effect; inconclusive = small, poorly fitted or top-dose-only effect, or another doubt; inactive = no such curve, though single readings can be large or run the other way; cell line not stated here;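 note: phosphodiesterase inhibitor Ro 20-1724 added with compounds to block cAMP breakdown; potency is the fitted concentration of half-maximal effect; nearly all actives have a fitted effect of over 60% in size; about a fifth of the inactives were tested at one dose only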
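Cells stably selected in G418 were plated at 2000/well, grown 16-24 hr, then given compounds in DMSO with the PDE inhibitor […] (300 uM solution added) for 30 min at 37C; cAMP was read by HTRF.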
ClpP mod: qHTS Assay for Activators of ClpP. 340,000 compounds, 1.9% hits. Potency, µM (doses to about 57.5 µM), inactives show at the top dose activity change, negative = active. purified B. subtilis ClpP, FRET peptide cleavage, 20 min. ATP-dependent Clp protease proteolytic subunit (Bacillus subtilis (strain 168)), P80244. AID 651965, 2013; active = well fitted falling curve with a large enough effect; inconclusive = small, poorly fitted or top-dose-only effect; inactive = no such curve, though single readings can be large or run the other way; note: potency is the fitted concentration of half-maximal effect; the source files actives as falling curves though it sought activators and does not explain the sign; nearly all actives have a fitted effect of over 65% in size; many hits overshoot -100%
Target sequence (P80244 whole entry, looked up): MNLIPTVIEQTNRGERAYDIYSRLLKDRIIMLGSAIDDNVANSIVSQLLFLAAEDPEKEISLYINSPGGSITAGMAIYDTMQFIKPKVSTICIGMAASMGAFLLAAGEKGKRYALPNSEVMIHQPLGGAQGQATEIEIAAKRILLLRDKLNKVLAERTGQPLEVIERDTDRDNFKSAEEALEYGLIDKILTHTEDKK
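Buffer: 100 mM Tris/HCl pH8, 100 mM KCl, 0.05% low protease BSA, 2.5% glycerol, 0.01% Tween-20. ClpP 10 microg/mL final; 20 min RT; delta FRET normalized to ADEP and DMSO controls.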
Sfp inh: qHTS Assay for Inhibitors of Bacillus subtilis Sfp phosphopantetheinyl transferase (PPTase); Potency, µM, for inactives: max response, negative = inhibition, usual class: inhibitors; Biochemical Sfp PPTase activity, qHTS; 310,000 compounds, 3.5% hits; 4'-phosphopantetheinyl transferase ffp (Bacillus subtilis), Q9F4F7; active = well fitted inhibition curve with a large enough effect; inconclusive = small, poorly fitted or top-dose-only effect, or another doubt; inactive = no such curve, though single readings can be large or run the other way;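 note: the enzyme is Sfp with the accession as filed and its product quenches rhodamine fluorescence; potency is the fitted concentration of half-maximal effect; 0% = enzyme reaction without inhibitor and -100% = no enzyme wells; top concentration of the series not given in the record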
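Fluorescence-quenching assay with 15 nM Sfp, 5 uM rhodamine-CoA and 12.5 uM BHQ-2-labelled ybbR peptide in pH 7.6 Hepes/MgCl2 buffer. Enzyme was pre-incubated with compound for 15 min at room temperature. Rate was taken from the 30-min fluorescence change (525/598 nm).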
gsp antag: qHTS for Antagonists of gsp, the Etiologic Mutation Responsible for Fibrous Dysplasia/McCune-Albright Syndrome: qHTS | gsp-mutant cells, cAMP HTRF, 30 min; control for the full effect not named in the record | Potency, µM (titrated, usually from 76.9 µM), for the others: at the top dose activity change, negative = inhibition, hits mostly inhibitors | 340,000 compounds, 0.4% hits; active = falling curve of any shape with a large fitted effect; inconclusive = falling curve, mostly with a smaller effect; inactive = flat or rising curve; cell line not stated here;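 note: intracellular cAMP measured with PDE inhibitor Ro 20-1724 present during compound exposure; potency is the fitted concentration of half-maximal effect; % is set by controls: 0 for no effect and ±100 for the full control effect; nearly all actives have a fitted effect of over 65% in size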
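Cells in G418 medium, seeded 16-24 h, 37C; buffer exchange to DPBS + 1 mM CaCl2, 0.5 mM MgCl2, 0.05% BSA; cpds in DMSO + […] (300 uM stock), 30 min 37C; HTRF cAMP detection.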
Menin-MLL FL inh: qHTS Assay for Inhibitors Targeting the Menin-MLL Interaction in MLL Related Leukemias: Competition With Fluorescein Labeled MLL-derived Peptide; Fluorescence polarization, fluorescein-MLL peptide displacement from menin; FP activity change, % at 61.4 µM; 290,000 tested, under 10 active; inconclusive = falling polarisation curve, or a change in total fluorescence; inactive = total fluorescence flat and polarisation flat or rising; no compound was filed as active; the % refers to the polarisation; negative = inhibition;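 note: % of control where 0% means no effect; inhibitors lower the polarisation; unlabelled MLL peptide was the positive control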
TRPML1 blocker: qHTS for Inhibitors of the Human Mucolipin Transient Receptor Potential 1 (TRPML1). Mucolipin-1 (Homo sapiens), Q9GZU1. TRPML1-inducible cells, Ca2+ dye fluorescence, FDSS; active compounds read low; inhibition of EC80 agonist-evoked calcium signal. activity change, negative = inhibition, % (no concentration beside the values). 390,000 compounds, 0.02% hits. AID 624415, 2012; in the data active means activity change below about -50%; inconclusive means about -30% to -50%; inactive means above about -30%;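 note: stimulus is agonist 54-4 at its EC80 concentration; % is set by controls: 0 for no effect and ±100 for the full control effect; compound concentration not given in the record; the text of the record puts the active cut at -80%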
Target sequence (Q9GZU1 whole entry, looked up): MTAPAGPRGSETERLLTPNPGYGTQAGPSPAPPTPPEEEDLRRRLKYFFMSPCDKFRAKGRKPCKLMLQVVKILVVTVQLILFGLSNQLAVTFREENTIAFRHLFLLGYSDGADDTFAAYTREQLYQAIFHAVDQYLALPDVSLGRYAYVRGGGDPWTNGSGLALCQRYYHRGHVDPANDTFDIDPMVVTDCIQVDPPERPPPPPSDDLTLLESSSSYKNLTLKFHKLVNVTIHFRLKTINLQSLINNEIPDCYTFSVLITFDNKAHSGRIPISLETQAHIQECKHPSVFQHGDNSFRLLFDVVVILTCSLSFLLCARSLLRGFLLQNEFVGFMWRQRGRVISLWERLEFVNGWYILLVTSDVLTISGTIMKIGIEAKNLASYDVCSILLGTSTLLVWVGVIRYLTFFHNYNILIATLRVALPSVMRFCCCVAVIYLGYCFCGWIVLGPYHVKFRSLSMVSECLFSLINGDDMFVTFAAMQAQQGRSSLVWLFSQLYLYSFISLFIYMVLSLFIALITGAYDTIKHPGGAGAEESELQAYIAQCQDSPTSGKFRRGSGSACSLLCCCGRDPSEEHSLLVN
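TRPML1-DL cells, Tet-induced overnight (~16 h, 37 °C) at 1,500 cells/well, were loaded with Ca8 no-wash dye plus quencher for 45-90 min at room temperature. Compounds were pinned during FDSS kinetic reading; agonist 54-4 at EC80 (4 uM final) then added.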
TRPV1 potentiator: HTS Assay for Compounds that Act as Potentiators of the Vanilloid Receptor 1. Transient receptor potential cation channel subfamily V member 1 (Homo sapiens), Q8NER1. TRPV1-expressing cells, Fluo-8 calcium influx, capsaicin EC20 potentiation; host cell line not named in the record; control for the full effect not named in the record. potentiation, % at 8.33 µM. 320,000 compounds, 0.02% hits. AID 540277, 2011; active means potentiation above 80%; inconclusive means 30% to 80%; inactive means below 30%; note: 0% is about no effect
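Fluo-8 calcium influx in TRPV1-expressing cells, kinetic read (ex 480/em 520 nm). Compound added and read 3 min for agonist activity, followed by capsaicin at EC20 final and 2 min further read for enhancement.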
* hit, by the source's call; ? = inconclusive; nt = no result given; & = joins results of further samples; [ ] = another dose, or the depositor's remark. Hits appear at their usual frequency, and some 4.9% of all compounds hit somewhere here.

SMILES | gsp agonist | ClpP mod | Sfp inh | gsp antag | Menin-MLL FL inh | TRPML1 blocker | TRPV1 potentiator
COc1ccc(CNC(=O)CSc2nc3ccc(N)cc3s2)cc1 | -16% | 2.4% | 1% | 0% | 1.1 | -1 | -4
COc1ccc(C2SCCN2C(=O)c2ccc([N+](=O)[O-])cc2)cc1 (stereo not drawn) | -12%[15.4 µM] | nt | 13% | -5% | -6.8 | -5 | 9
NC(=O)NCCCC(=O)OCC(=O)c1ccc2ccccc2c1 | 2%[15.4 µM] | 1.9% | 15% | -11% | 0.2 | 0 | -3
COc1ccc(-n2c(C)nn(C)c2=O)c(OC)c1 | -31%[inhibitor] | -1.8% | 17% | 8% | 1.6 | 5 | 4
CCN(CC(=O)N1CCN(Cc2ccccc2)CC1)S(=O)(=O)c1ccccc1 | -27% | 1.0% | 10% | 15% | nt | -8 | 0
CCOC(=O)c1c(C)c(C(=O)NCc2ccccn2)c(C)n1CC | 34% | -1.9% | 11% | 2% | 4.5 | 12 | -4
CCCn1cnc2c(c1=O)c1nc3ccccc3nc1n2CCc1ccccc1 | -30% | -14% | 9% | 6% | 4.7 | -13 | -9
COc1ccccc1NC(=O)Nc1ccnn1C1CCN(C(=O)c2ccccn2)CC1 | -94%[inhibitor] | -4.1% | 8% | 14% | nt | 42 | 12
O=C1NN(c2ccc(F)cc2)C(=O)/C1=C\C=C\c1ccco1 | -6% | -1.4% | -8% | -12% | nt | 17 | ?
COC(=O)[C@@H]1[C@@H](C)OC(=O)N[C@H]1c1ccccc1 | -25% | -4.9% | -3% | 7% | 0.6 | -18 | 14
Cc1nn(-c2ccc(F)cc2)c2c1cc(C#N)c1nc3ccccc3n12 | ? | 16µM* | 22% | 7% | 1.1 | -2 | 2
CS(=O)(=O)Nc1ccc(C2=NN(C(=O)c3ccco3)C(c3ccco3)C2)cc1 (stereo not drawn) | 3%[15.4 µM] | 3.0% | 7% | ? | nt | 5 | -5
CC1CCCC(NC(=O)Nc2cccs2)C1C (stereo not drawn) | -16% | -0.2% | -14% | -4% | 6.9 | -14 | -21
Cc1sc2nc(CN(Cc3cccs3)C(=O)C3CC3)[nH]c(=O)c2c1C | -1% | -3.3% | 8% | -5% | -1.0 | 33 | 11
COC(=O)N/N=C/c1cn(CCCOc2ccc(C)cc2)c2ccccc12 | -29% | -0.8% | -38% | -20% | 0.0 | 23 | -6
O=C1COc2ccc(C(=O)c3ccccc3)cc2CN1 | -31%[inhibitor] | -0.8% | 11% | 4% | -0.2 | -4 | -3
COc1ccc(C(=O)CCNc2ccc3c(c2)OCCO3)cc1 | 13% | -1.8% | -8% | -18% | 0.8 | -26 | 11
COc1ccc(C(=O)NCC(=O)OCC(=O)NCCC2=CCCCC2)cc1 | 22% | -1.5% | 12% | -6% | -0.1 | 16 | 2
COc1ccccc1-n1nnnc1SCC(=O)NCC1CCCO1 (stereo not drawn) | 3% | -2.0% | nt | -8% | nt | -3 | -10
CCC(C)NC(=O)C1CCCN(S(=O)(=O)c2ccc3c(c2)CC(C)N3C(C)=O)C1 (stereo not drawn) | 0% | -1.7% | 11% | -4% | -4.5 | 2 | 25
CCN(CC)C(=O)C(C(=O)c1cccc([N+](=O)[O-])c1)n1cc(Cl)ccc1=O (stereo not drawn) | -19% | 2.7% | 4% | 9% | 0.4 | 7 | 16
CCc1cc(C(=O)Nc2cc(Cl)ccc2N2CCN(C)CC2)sc1C | -37%[15.4 µM] | nt | nt | 11% | nt | 1 | 3
NC(=O)C1CCCN(C(=O)CCc2nnc(C3(c4ccc(Cl)cc4)CCC3)o2)C1 (stereo not drawn) | -36% | -3.4% | 13% | 1% | nt | 4 | 8
Cc1cccc(N2CCN(C(=O)c3cc4c(=O)n(C)c5ccccc5c4n3C)CC2C)c1 (stereo not drawn) | -10% | -4.4% | ? | ? | 1.0 | -3 | 12
CC(NC(=O)c1ccccc1Cl)C1CC2CCC1C2 (stereo not drawn) | 3%[15.4 µM] | nt | -9% | -1% | -2.6 | 13 | -8

Structures listed so far with a nitro group on carbon, in the order listed:
SMILES | gsp agonist | ClpP mod | Sfp inh | gsp antag | Menin-MLL FL inh | TRPML1 blocker | TRPV1 potentiator
COc1ccc(C2SCCN2C(=O)c2ccc([N+](=O)[O-])cc2)cc1 (stereo not drawn) | -12%[15.4 µM] | nt | 13% | -5% | -6.8 | -5 | 9
CCN(CC)C(=O)C(C(=O)c1cccc([N+](=O)[O-])c1)n1cc(Cl)ccc1=O (stereo not drawn) | -19% | 2.7% | 4% | 9% | 0.4 | 7 | 16

The results go on.
SMILES | gsp agonist | ClpP mod | Sfp inh | gsp antag | Menin-MLL FL inh | TRPML1 blocker | TRPV1 potentiator
CC(=O)c1ccc(-c2ccc([C@H]3[C@H]4C=CC[C@@H](C)[C@@H]4C(=O)N3Cc3ccccc3)c(F)c2)cc1 | nt | -14% | ? | -3% | -5.8 | 54 | ?
Cc1cc(C)n(C(=O)CNC(=O)c2ccco2)n1 | 9% | -1.4% | 10% | -2% | 0.4 | 32 | 4
O=c1oc2cc(OCc3ccc(C(F)(F)F)cc3)ccc2cc1-c1ccccn1 | 6% | ? | 14% | 16% | 1.8 | 14 | 13
COc1cccc(CN(C)C(=O)c2[nH]c(C)c(C(C)=O)c2C)c1OC | 18%[15.4 µM] | 1.4% | 16% | -11% | 3.0 | -7 | 5
O[C@H]1COC2C1OC[C@@H]2O (stereo partly drawn) | nt | 0.4% | 30% | -1% | 3.5 | 38 | 5
COC(=O)c1ccc(NC(=O)COc2ccc(S(=O)(=O)NC(C)(C)C)cc2)cc1 | 5%[15.4 µM] | nt | 6% | -4% | 2.2 | 1 | -2
O=C(CNC(=O)c1cccc(F)c1)N/N=C/c1ccc(O)c([N+](=O)[O-])c1 | -60%[inhibitor] | -1.2% | 15% | -22% | 4.6 | -2 | 0
COc1cccc(-n2c(Cc3cc(=O)[nH]c(=O)[nH]3)nnc2SCc2cccc(C(F)(F)F)c2)c1 | 16% | 1.2% | 7% | -22% | -1.9 | 1 | 1
O=C(Oc1cc(=O)oc2c1c(=O)n1c3c(cccc23)CC1)c1ccc(F)cc1 | -10%[15.4 µM] | nt | 7% | 3% | -0.7 | -2 | 8
OCCCn1c(C2CCCN2c2nc(-c3ccc(F)cc3)cs2)nc2cc(Cl)c(N3CCCCC3)cc21 (stereo not drawn) | -8% | -1.8% | nt | -14% | nt | -3 | nt
CCOc1ccccc1N(C)C(=O)Cn1ncc2c([nH]c3ccccc32)c1=O | -14% | -14% | 3% | -8% | nt | -15 | -2
Cc1nn(CC(=O)N2CCN(c3ccc(Cl)cc3)CC2)c(=O)c2cccn12 | 16% | -3.8%&-0.5% | 13% | 7% | -4.1 | -4&-10 | 0
Cn1ccnc1C(=O)c1ccc(NN)c([N+](=O)[O-])c1 | 7%[15.4 µM] | nt | -11% | -10% | 2.0 | -10 | 3
Cc1cccc(N2CCN(S(=O)(=O)c3c(C)[nH]c(=O)[nH]c3=O)CC2)c1C | -7% | 0.2%&1.0% | -12% | -12% | 2.3 | 20&-6 | 5
COc1cc(/C=C/C(=O)OCC(=O)Nc2ccc3[nH]c(=O)[nH]c3c2)ccc1OC(F)F | -90%[inhibitor] | -8.8% | nt | nt | nt | -1 | nt
CCOC(=O)N1CCC(=NNc2ccc(S(=O)(=O)N3CCOCC3)cc2[N+](=O)[O-])CC1 | 15% | -1.3% | 1% | -5% | nt | 26 | -5
C[C@@H](C(=O)NCc1ccc(S(C)(=O)=O)cc1)[C@@H]1C[C@@]1(C)[C@@H](NC(=O)OCc1ccccc1)c1ccccc1 | nt | 1.6% | 21%&19% | -17% | -1.6&-3.1 | -8 | -5
O=C(COc1ccc(/C=N/NC(=O)c2cccnc2)cc1)Nc1ccccc1 | 7%[15.4 µM] | -1.8% | 17% | -10% | nt | 18 | -16
Cc1ccc(CN2CCN(Cc3cnc(C)s3)CC2CCO)o1 (stereo not drawn) | 42% | -1.8% | 1% | 9% | 0.6 | -1 | 1
Cc1cc(C(=O)CSc2n[nH]c(-c3ccccc3F)n2)c(C)n1Cc1cccs1 | -1% | -0.7% | 0% | -8% | 6.1 | 17 | -12

Pulled by compound from the entries so far, four records:
SMILES | gsp agonist | ClpP mod | Sfp inh | gsp antag | Menin-MLL FL inh | TRPML1 blocker | TRPV1 potentiator
O=C(CNC(=O)c1cccc(F)c1)N/N=C/c1ccc(O)c([N+](=O)[O-])c1 | -60%[inhibitor] | -1.2% | 15% | -22% | 4.6 | -2 | 0
Cc1cc(C)n(C(=O)CNC(=O)c2ccco2)n1 | 9% | -1.4% | 10% | -2% | 0.4 | 32 | 4
COc1cccc(CN(C)C(=O)c2[nH]c(C)c(C(C)=O)c2C)c1OC | 18%[15.4 µM] | 1.4% | 16% | -11% | 3.0 | -7 | 5
CCOc1ccccc1N(C)C(=O)Cn1ncc2c([nH]c3ccccc32)c1=O | -14% | -14% | 3% | -8% | nt | -15 | -2

Arranged by the number under gsp agonist (rising): 3 of the compounds above
| compound | gsp agonist |
| --- | --- |
| OCCCn1c(C2CCCN2c2nc(-c3ccc(F)cc3)cs2)nc2cc(Cl)c(N3CCCCC3)cc21 (stereo not drawn) | -8% |
| Cc1nn(CC(=O)N2CCN(c3ccc(Cl)cc3)CC2)c(=O)c2cccn12 | 16% |
| Cc1ccc(CN2CCN(Cc3cnc(C)s3)CC2CCO)o1 (stereo not drawn) | 42% |
